HCMV UL50-53 inh = inhibitors of HCMV UL50-UL53 nuclear egress complex interaction; HTRF UL50-UL53 interaction, normalized percent inhibition; inhibition, % (concentration not given with the values); 190,000 tested, 0.15% active; AID 1918969;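 active = both replicates at 50% or more, plus weaker picks with an unusually low signal ratio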;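 also: stock transfer was 100 nL into about 20 µL; 0% = negative control wells and 100% = wells with untagged competitor protein; inactives centre near -12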
Numbers without * were called inactive; & = joins results of further samples. An excerpt. The share of hits here may be higher or lower than overall.

entry | SMILES | HCMV UL50-53 inh
1 | COC(=O)C1CC(c2ccc(Cl)cc2)=NO1 (stereo not given) | -6
2 | O=c1ccn(C2OC(CO)C(O)C2O)c(=O)[nH]1 (stereo not given) | -9
3 | O=c1c2sc(-c3ccc(F)cc3)cc2ncn1Cc1nc2ccccc2[nH]1 | -13
4 | CCC(=O)Nc1nnc(-c2cccs2)o1 | -12
5 | CCOc1ccc(-c2csc(/C(C#N)=C\Nc3ccc(NC(C)=O)cc3)n2)cc1 | 8
6 | COc1ccc(C(=O)OCc2nc3ccccc3s2)cc1 | -1
7 | CCn1ncc(NC(=O)Cn2nc(C)c(-c3ccc(-n4cccn4)cc3)c2C)n1 | 42&42
8 | C=CCSC1=C(C#N)C(c2ccc(C)o2)CC(=O)N1 (stereo not given) | -10
9 | N#CC(C#N)=C(N)/C(C#N)=C/c1ccc2[nH]ccc2c1 | -22
10 | Cc1cccc(C(=O)Nc2cccc(NC(=O)c3cccc(C)c3)n2)c1 | -15
11 | Cc1ccc2c(c1)C(c1ccccc1)N(C(=O)c1ccccc1)CC(=O)N2 (stereo not given) | 6
12 | O=C(COC(=O)c1ccccc1O)c1cccs1 | -6
13 | CCCCCCCCCCCCCCCCn1cc[n+](Cc2ccccc2)c1C | 6&17&46
14 | COc1cc(Cn2cnc3nccnc3c2=O)cc(OC)c1 | -35&-35
15 | Cc1[nH]c2ccccc2c1SCCNC(=O)/C=C/c1ccccc1 | -14
16 | O=C(CSc1nnc2n1CCCCC2)Nc1ccccc1C(F)(F)F | -5
17 | CC1(C)SC2C(NC(=O)C(C(=O)O)c3ccsc3)C(=O)N2C1C(=O)O (stereo not given) | -10
18 | O=C(CCCN1C(=O)/C(=C/c2cccs2)SC1=S)Nc1cccc(C(F)(F)F)c1 | -4
19 | CCCCC/C=C\C/C=C\C/C=C\C/C=C\CCCC(=O)O | -10&-10&-6
20 | Cc1ccc2cccc(OC(=O)N3CCOCC3)c2n1 | -8

Part of the list above, as labelled records.
14: COc1cc(Cn2cnc3nccnc3c2=O)cc(OC)c1
- HCMV UL50-53 inh: -35&-35

15: Cc1[nH]c2ccccc2c1SCCNC(=O)/C=C/c1ccccc1
- HCMV UL50-53 inh: -14

(next part)
entry | SMILES | HCMV UL50-53 inh
21 | COC(=O)c1ccc2nc(NC(=O)Cc3ccccc3)sc2c1 | -11
22 | c1ccc(CSc2nc3ccccc3[nH]2)cc1 | -1
23 | O=C(Nc1cccc(-c2csc(Nc3cccc(C(F)(F)F)c3)n2)c1)c1ccccc1 | -10
24 | O=C(CCn1c(=O)sc2ccccc21)Nc1nccs1 | -8
25 | CCCSc1nnc(CNC(=O)C23CC4CC(CC(C4)C2)C3)n1CC | -19
26 | N#CC(C#N)=C(N)CSc1ccc(Cl)cc1 | -5
27 | CCCn1c(C2CC(=O)N(Cc3ccccc3)C2)nc2ccccc21 (stereo not given) | -15
28 | O=C(O)/C=C\C(=O)Nc1ccc(Cl)c(Cl)c1 | 14
29 | CC(CCC(=O)O)C1CC[C@H]2[C@@H]3CC(O)[C@@H]4CC(O)CC[C@]4(C)[C@@H]3CC[C@]12C (stereo not given in full) | -3
30 | C=C(C)C(=O)Oc1ccc(N2C(=O)C3C4C=CC(C4)C3C2=O)cc1 (stereo not given) | 7
31 | C=CCSc1nc2sc3c(c2c(=O)[nH]1)CCCC3 | 0
32 | O=C(CSC1CCCCC1)N1CCOCC1 | 0&-10
33 | CCN=C1N[C@@H]2C(O)C(O)C(CO)O[C@@H]2S1 (stereo not given in full) | -6
34 | Cc1nc2sc(C(N)=O)c(N)c2c(-c2ccccc2)c1C(=O)Nc1ccccc1 | -17
35 | COc1ccc(/C=C/C(=O)O)cc1S(=O)(=O)N1CCc2ccccc2C1 | -6
36 | CCOC(=O)c1sc2nc3c(c(-c4ccc(OC)cc4)c2c1N)CCC3 | -6
37 | CCCCOc1c(C(=O)c2c(F)cc(C)cc2F)cnc2n[nH]cc12 | -2
38 | Nc1nc2c([nH]c(=O)n2[C@@H]2O[C@H](CO)[C@@H](O)[C@H]2O)c(=O)[nH]1 | 1&1
39 | CC[C@@]1([C@@H]2O[C@@H]([C@H]3O[C@@](O)(CO)[C@H](C)C[C@@H]3C)C[C@@H]2C)CC[C@H]([C@]2(C)CC[C@]3(C[C@H](O)[C@@H](C)[C@@H]([C@@H](C)[C@@H](OC)C(C)C(=O)O)O3)O2)O1 (stereo not given in full) | -2
40 | CC(C)C(C(=O)O)n1c(O)c(C2=c3ccccc3=NC2=O)sc1=S (stereo not given) | -30
41 | CCCCCCCCCCCCCCCCOC[C@H](COP(=O)([O-])OCC[N+](C)(C)C)OCC | -3&-3
42 | CN(C(=O)c1ccc(Br)o1)C1CCS(=O)(=O)C1 (stereo not given) | -23
43 | Nc1cnc(CNc2ccccc2Cl)cn1 | -8
44 | CCOC(=O)N1CCN(S(=O)(=O)c2cccs2)CC1 | -13
45 | COc1ccc(C2(C#N)CCC(C(=O)O)CC2)cc1OC1CCCC1 (stereo not given) | -5
46 | CCCS(=O)(=O)Nc1ccc(F)c(C(=O)c2c[nH]c3ncc(Cl)cc23)c1F | -8&-14&-12&-11&-12&-3&0&2
47 | CC1=C(C(=O)Nc2ccccc2)C(c2ccccc2Cl)C(C#N)=C(SCC(N)=O)N1 (stereo not given) | -16
48 | N#C/C(=C(/N)Sc1ccccc1N)c1cccc(C(O)c2ccncc2)c1 (stereo not given) | -43
49 | Nc1ccccc1NC(=O)CCCCCCC(=O)Nc1ccccc1 | -14&-14
50 | CC(C)C(=O)Nc1nnc(-c2ccc(Cl)cc2)s1 | -20
51 | CC=C1NC(=O)C2CSSCCC=CC(CC(=O)NC(C(C)C)C(=O)N2)OC(=O)C(C(C)C)NC1=O (stereo not given) | -15
52 | COc1ccc2c(C)cc(SCC(=O)Nc3ccc4c(c3)OCO4)nc2c1 | -15
53 | O=C(/C=C/c1ccco1)N1CCN(Cc2ccccc2)CC1 | -36
54 | N#Cc1c(/N=C/c2cccs2)sc2c1CCCC2 | -4
55 | O=c1cc(CSc2n[nH]c(=O)n2-c2ccccc2)c2ccc(O)cc2o1 | -47
56 | COc1ccccc1-n1c(SCc2ccc(F)cc2)nc2c(c1=O)SCC2 | -2
57 | NC(=O)NCc1cn(CC2CCN(C(=O)CC3CCCCCC3)CC2)nn1 | -10
58 | Cc1ccc(Cn2nc(C)cc2C(=O)Nc2ccc(C)cc2)cc1 | -8
59 | COc1ccc(CCc2nc3cc(-c4c(C)noc4C)ccc3n2CC(C)N2CCOCC2)cc1Cl (stereo not given) | -3
60 | CC(C)c1ncc(-c2cc(C(=O)N(C)C(C)C)c3ccc(F)cc3n2)cn1 | -12
61 | CCCn1c(=O)c2[nH]c(-c3ccccc3)nc2n(CCC)c1=O | 6
62 | CN(C)c1ccc(C(=O)N2CCc3ccccc32)cc1 | 8
63 | CC(C)N(C(=O)CSc1nc2ccccc2n1C)c1ccccc1 | -5
64 | O=C(/C=C/c1cccc(F)c1)Nc1ccon1 | -4
65 | Cc1cc(C)c(C#N)c(SCC(=O)Nc2nccs2)n1 | -13
66 | COc1ccc(C(=O)NCCc2nc3ccccc3n2CC(C)C)cc1OC | -3
67 | COC(=O)c1cnc(Cl)cc1Cl | -6
68 | CC(=O)Nc1nnc(-c2ccccc2C)s1 | -6
69 | N#CC1=C(SCC(=O)Nc2ccccc2)NC(=O)CC1c1cccc(Br)c1 (stereo not given) | -7
70 | O=C1CN(C(=O)c2ccc(Br)o2)C(c2ccccc2)c2cc(Cl)ccc2N1 (stereo not given) | -15

(more compounds)
entry | SMILES | HCMV UL50-53 inh
71 | COc1ccc(C(=O)N2CCN(C(=O)c3ccc4sc(N)nc4c3)CC2)cc1 | 47&47
72 | CCOC(=O)C(C)Sc1nnc(NC(=O)c2ccc3ccccc3c2)s1 (stereo not given) | -21
73 | CC(C)N1CCN(C(=O)c2cc(-c3ccccc3)cc(S(=O)(=O)N3CCSCC3)c2)CC1 | -18
74 | COc1ccc(C2C(C(=O)O)CC(=O)N2Cc2ccccc2)cc1 (stereo not given) | 16&2
75 | O=C(CC(NCCc1ccccc1)C(=O)O)Nc1cccc(Cl)c1 (stereo not given) | 2
76 | CC(=O)Nc1c2c(nn1-c1ccc(C)cc1)CS(=O)(=O)C2 | -2
77 | CCOC(=O)c1c(OCC)[nH]c2c1cc(O)c1ccccc12 | -21
78 | COC(=O)c1ccsc1NC(=O)c1ccc(N(C)C)cc1 | 11&2
79 | COc1ccc(S(=O)(=O)N2Cc3ccccc3CC2C(=O)N2CCCCCC2)cc1 (stereo not given) | 2
80 | CC(C)/C=C/CNc1cc(C(=O)NCc2cn3ccccc3n2)cc(S(=O)(=O)NC(C)C)c1 | 8
81 | CC(=O)Nc1cccc(-c2cn3cccc(C)c3n2)c1 | 4
82 | COc1ccc2c(c1)c(CC(=O)Oc1ccc(-c3cc(=S)ss3)cc1)c(C)n2C(=O)c1ccc(Cl)cc1 | -15&-15
83 | Cc1ccc(-n2ncc3c(=O)[nH]c(SCC(=O)c4ccccc4)nc32)cc1 | 13
84 | CCOc1ccc(NC2=NCCC2)cc1 | -20
85 | CCCc1cc(=O)oc2c(CN3CCOCC3)c(O)ccc12 | -9
86 | c1ccc(-c2nc(NCc3cccnc3)c3ccccc3n2)cc1 | 0
87 | CC(C)(CO)c1cc2cc(NC(=O)C3(c4ccc5c(c4)OC(F)(F)O5)CC3)c(F)cc2n1CC(O)CO (stereo not given) | 14
88 | CCOC(=O)c1ccsc1NC(=O)CC | 0&1
89 | Cc1ccc(NC(=O)CC(NCCC2=CCCCC2)C(=O)O)c(C)c1 (stereo not given) | -1
90 | CNc1ncnc2c1ncn2C1OC(CO)C(O)C1O (stereo not given) | -8
91 | Nc1nc(NCc2ccncc2)c2cn[nH]c2n1 | -4&-4
92 | CC1(C)CC(=O)C(C(c2ccccn2)c2c[nH]c3ccccc23)=C(O)C1 (stereo not given) | -4
93 | COc1cccc2c(=O)n(Cc3ccc4nonc4c3)cnc12 | 18&18
94 | O=C(CN1C(=O)CC(c2ccccc2)Sc2ccccc21)NC1CCCCC1 (stereo not given) | -11
95 | Cc1ccc2c(c1)C(=O)C1(O)CCN(c3ccccc3)C1=N2 (stereo not given) | -45&-30&-30&-69
96 | O=C(Nc1n[nH]c(-c2ccccc2)n1)N1CCN(c2ccc(F)cc2)CC1 | -24&-24
97 | CC(CCCC(C)(C)O)CCNCC1CCN(c2ccccc2)C1 (stereo not given) | -9
98 | CCCCc1ncc(C=C(Cc2cccs2)C(=O)O)n1Cc1ccc(C(=O)O)cc1 | -10
99 | CCCCC[C@H](O)/C=C/[C@@H]1[C@@H](C/C=C\CCCC(=O)O)[C@H]2CO[C@@H]1C2 | -7
100 | c1ccc(-c2nn(-c3ccccc3)[n+](-c3ccccc3)n2)cc1 | -70
101 | CC1CCCN(c2ccc(C(F)(F)F)cn2)C1 (stereo not given) | 7
102 | CCCCCCCCCCCCCCCC(=O)SCCOP(=O)([O-])OCC[N+](C)(C)C | -10&-10
103 | CCOc1ccc(C=C2NCCc3cc(OCC)c(OCC)cc32)cc1OCC | -34
104 | CCC(Nc1ncc(C)c(-c2cnn(C)c2)n1)c1nc2ccc(C)cc2[nH]1 (stereo not given) | -8
105 | CCOC(=O)c1c(C)[nH]c(/C=C2\C(=O)Nc3ccccc32)c1C | 0
106 | CCC(C)Sc1nnc(NC(=O)c2ccccc2C(F)(F)F)s1 (stereo not given) | -12
107 | COc1ccc2oc(-c3ccccc3)c(C(=O)N(C)C)c2c1 | -28
108 | COc1cc2ncnc(N3CCN(C(=O)Nc4ccc(Oc5ccccc5)cc4)CC3)c2cc1OC | -31
109 | O=C(O)c1cccc(NC(=O)c2cc3ccccc3oc2=O)c1 | -125
110 | CSc1cc2c(cc1C(F)(F)F)N(C(=O)Nc1cccnc1)CC2 | -9
111 | CCN(C)C(=O)Oc1cccc(C(C)N(C)C)c1 (stereo not given) | -6
112 | CN1CCN(CCc2ccc(Cl)c(Cl)c2)CC1 | 8
113 | O=C1/C(=C\Nc2ccc(F)cc2)S(=O)CN1c1ccc(F)cc1 (stereo not given) | 8
114 | CCCCC[C@H](O)/C=C/C1=C(CCCCCCC(=O)O)C(=O)CC1 | -27&-27&-3
115 | CCOC(=O)c1ccc(N2NC(=O)C(=Cc3ccc([N+](=O)[O-])o3)C2=O)cc1 | 21
116 | CCCCCCCCCCCC(=O)CC(=O)N[C@H]1CCOC1=O | 4&4
117 | Cc1ccc(-n2ncc3c(=O)[nH]cnc32)c(C)c1 | -7
118 | Cc1[nH]c2ccccc2c1C(=O)CSc1nnnn1-c1ccccc1 | -6
119 | CSc1nnc(CNC(=O)c2ccccc2)n1-c1ccccc1 | -20
120 | COC(=O)C1=C(C)NC(C)=C([N+](=O)[O-])[C@H]1c1ccccc1C(F)(F)F | -23
121 | CCOc1ccccc1Cn1c(=O)oc2ccccc21 | -1
122 | Cn1cccc1Cc1nnc(SCC(=O)N2CCCC2)n1CCc1ccccc1 | -10
123 | COc1cc(Cl)ccc1S(=O)(=O)N1CCN(c2ccc(C)c(C)c2)CC1 | -6

Among those listed so far, these contain a thiophene ring, fused or not:
entry | SMILES | HCMV UL50-53 inh
3 | O=c1c2sc(-c3ccc(F)cc3)cc2ncn1Cc1nc2ccccc2[nH]1 | -13
4 | CCC(=O)Nc1nnc(-c2cccs2)o1 | -12
12 | O=C(COC(=O)c1ccccc1O)c1cccs1 | -6
17 | CC1(C)SC2C(NC(=O)C(C(=O)O)c3ccsc3)C(=O)N2C1C(=O)O (stereo not given) | -10
18 | O=C(CCCN1C(=O)/C(=C/c2cccs2)SC1=S)Nc1cccc(C(F)(F)F)c1 | -4
31 | C=CCSc1nc2sc3c(c2c(=O)[nH]1)CCCC3 | 0
34 | Cc1nc2sc(C(N)=O)c(N)c2c(-c2ccccc2)c1C(=O)Nc1ccccc1 | -17
36 | CCOC(=O)c1sc2nc3c(c(-c4ccc(OC)cc4)c2c1N)CCC3 | -6
44 | CCOC(=O)N1CCN(S(=O)(=O)c2cccs2)CC1 | -13
54 | N#Cc1c(/N=C/c2cccs2)sc2c1CCCC2 | -4
78 | COC(=O)c1ccsc1NC(=O)c1ccc(N(C)C)cc1 | 11&2
88 | CCOC(=O)c1ccsc1NC(=O)CC | 0&1
98 | CCCCc1ncc(C=C(Cc2cccs2)C(=O)O)n1Cc1ccc(C(=O)O)cc1 | -10
